VDR inh: blocks the human vitamin D receptor; P11473; VDR-SRC2-3 peptide fluorescence polarization, 2 h; Potency, µM, for inactives: max response, negative = inhibition, usual class: inhibitors; 0.93% of 400,000 active; AID 504847; active means well fitted inhibition curve with a large enough effect; inconclusive means small, poorly fitted or top-dose-only effect, or another doubt; inactive means no such curve, though single readings can be large or run the other way; further: series mostly up to about 120 µM
Target sequence (P11473 whole entry, looked up): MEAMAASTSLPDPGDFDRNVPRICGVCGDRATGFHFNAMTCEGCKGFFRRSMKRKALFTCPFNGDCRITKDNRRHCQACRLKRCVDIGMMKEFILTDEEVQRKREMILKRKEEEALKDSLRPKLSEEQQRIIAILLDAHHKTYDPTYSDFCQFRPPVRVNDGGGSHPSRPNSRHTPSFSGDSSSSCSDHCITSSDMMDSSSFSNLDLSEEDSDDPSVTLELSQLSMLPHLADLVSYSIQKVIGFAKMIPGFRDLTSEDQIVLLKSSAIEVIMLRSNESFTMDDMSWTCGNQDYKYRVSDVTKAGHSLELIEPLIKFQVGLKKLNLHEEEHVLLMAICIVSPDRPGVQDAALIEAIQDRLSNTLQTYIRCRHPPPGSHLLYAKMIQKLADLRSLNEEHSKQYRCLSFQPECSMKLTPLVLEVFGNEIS
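Two reagent solutions held at 4 deg C in the dark were dispensed, compounds pinned at 23 nl, and the mixture incubated 2 h at room temperature. Read-out: fluorescence polarization of VDR–SRC2-3 peptide binding.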
Numbers without * were called inactive; & = joins results of further samples. On the % scale 0 is the no-effect control and ±100 the full control effect; potency means the concentration at half of the fitted maximal effect.

For COc1cc(/C=N/NC(=O)c2cc(-c3ccccc3OC(C)C)nc3ccccc23)ccc1O the results were VDR inh -9%.
CCn1nc(C)c(NC(=O)/C=C/c2cnn(C)c2C)c1C was read as VDR inh -6%.
Screening CC(=O)Nc1ccc(NC(=O)C2c3ccccc3Oc3ccccc32)cc1 returned VDR inh -11%.
Cc1c(CNC2CCCCCC2)c(C(=O)O)c(C)n1Cc1ccc(F)cc1 was read as VDR inh -13%.
For CCOc1ncccc1C(=O)OCC(=O)Nc1c(C)cccc1C the results were VDR inh -6%.
For Cc1ccc(NC(=O)CN2C(=O)NC(C)(C)C2=O)cc1S(=O)(=O)N1CCCCCC1 the results were VDR inh 1%.
For C=CCNc1nnc(Cl)c2ccccc12 the results were VDR inh -5%.
`COc1ccc(CCNC(=O)C(=O)NCC2OCCN2S(=O)(=O)c2ccc(F)cc2)cc1OC` (configuration not stated) gave VDR inh 17%.
Screening CCCc1nc2nc(C)c(NS(=O)(=O)c3ccc(C)c(C)c3)c(=O)n2[nH]1 returned VDR inh -6%.
Screening CCS(=O)(=O)N1Cc2ccccc2CC1C(=O)Nc1nccs1 (configuration not stated) returned VDR inh 1%.
Screening COc1cc2ncnc(Nc3ccc4c(c3)OCO4)c2cc1OC returned VDR inh 7%.
COC(=O)c1sc2ccccc2c1C(=O)OC was read as VDR inh -13%.
Screening Cc1[nH]c2ccccc2c1/C=N/Nc1nc(Nc2ccc(F)cc2)nc(N2CCOCC2)n1 returned VDR inh 1%.
CCCN(CC(=O)Nc1ccccc1C)C(=O)COc1ccc2c(c1)CCC2 was read as VDR inh 3%.
For CCCn1ccc2c(OCC(=O)NCc3ccccc3Cl)cccc2c1=O the results were VDR inh 9%.
Screening CC(NC(=O)COc1ccccc1)C(c1ccccc1)N1CCN(C)CC1 (configuration not stated) returned VDR inh -4%.
For CCOc1ccc(Nc2ncnc3onc(-c4ccc(Cl)cc4)c23)cc1 the results were VDR inh -7%.
`Cc1cc(C)n2c(SCC(=O)NCc3ccco3)nnc2n1` gave VDR inh 9%.
`Cc1ccc(-n2c(SCc3nc4ccccc4[nH]3)nnc2-c2ccncc2)cc1` gave VDR inh -13%.
For CCNC(=O)NC1(C(=O)N2CCC(Cc3ccccc3)CC2)CCCCC1 the results were VDR inh -6%.

Ordered by SMILES length (high to low): some entries from above.
`Cc1ccc(-n2c(SCc3nc4ccccc4[nH]3)nnc2-c2ccncc2)cc1` gave VDR inh -13%.
Screening CC(=O)Nc1ccc(NC(=O)C2c3ccccc3Oc3ccccc32)cc1 returned VDR inh -11%.
Screening CC(NC(=O)COc1ccccc1)C(c1ccccc1)N1CCN(C)CC1 (configuration not stated) returned VDR inh -4%.
For CCOc1ncccc1C(=O)OCC(=O)Nc1c(C)cccc1C the results were VDR inh -6%.

New compounds follow.
CC(C)(C)NC(=S)NCc1ccc2c(c1)OCO2 was read as VDR inh 8%.
For COc1ccc(Cl)cc1C(=O)OCC(=O)N(CC(C)C)c1c(N)n(Cc2ccccc2)c(=O)[nH]c1=O the results were VDR inh -6%.
`CN1CCN(c2nc3c(c(=O)n(C)c(=O)n3C)n2Cc2cccc(Br)c2)CC1` gave VDR inh -17%.
For Cc1cccc(CNc2ncc(-c3cccc([N+](=O)[O-])c3)n2C)c1 the results were VDR inh 10%.
Screening COC(=O)c1cc(NC(=O)CN2CCN(C(C)=O)CC2)cc(C(=O)OC)c1 returned VDR inh -2%.
For Cc1nc2c(-c3ccc(F)cc3)c(C)nn2c(C)c1CCC(=O)NCc1ccc(Cl)cc1 the results were VDR inh -22%.
COc1ccc(S(=O)(=O)N2CCSC2c2ccccc2)cc1 (configuration not stated) was read as VDR inh 14%.
`Cc1ccc(OCCC(=O)OCC(=O)Nc2ccccc2)cc1` gave VDR inh 11%.
For CC1(C)[C@@H](O)CC[C@]2(C)C3C(O)C=C4[C@H]5C[C@@](C)(CO)CC[C@]5(C)CC[C@]4(C)[C@]3(C)CC[C@@H]12 (some centres not stated) the results were VDR inh -23%.
Screening COc1ccc(Cl)cc1C(=O)NCc1cnn(C)c1C returned VDR inh 21%.
`CCOc1cccnc1Sc1ccccc1` gave VDR inh -20%.
Screening Cc1cnccc1CN(C)Cc1cn(C)nc1-c1ccc(Oc2ccccc2)cc1 returned VDR inh -3%.
`Cc1c(NS(=O)(=O)c2ccc3[nH]c(=O)[nH]c3c2)c(=O)n(-c2ccccc2)n1C` gave VDR inh -4%.
For COc1ccc(C2/C=C\C(c3ccc(OC)cc3)N(Cc3ccc(F)cc3)C(=O)C(=O)N2Cc2ccc(F)cc2)cc1 (configuration not stated) the results were VDR inh -11%.
COC(=O)c1oc2c(c1C)C(=O)CC(C)(C)C2 was read as VDR inh -1%.
`Cc1ccc(-c2nnn(CC(=O)N(CC(=O)NC3CCCCC3)c3ccc(F)c(Cl)c3)n2)o1` gave VDR inh 7%.
`O=C(COC(=O)c1c2c(nc3ccccc13)/C(=C\c1cccs1)CCC2)Nc1ccccc1Cl` gave VDR inh -7%.
For Cc1nnc(SCc2ccc(F)cc2)n1NC/C=C/c1ccccc1 the results were VDR inh 17%.
`Cc1ccc(C)c(N2CCN(C(=O)Cn3ncc4c(=O)oc5ccc(C)cc5c43)CC2)c1` gave VDR inh -7%.
`Cc1cccc(NS(=O)(=O)c2cccc(C(=O)N3CCN(C/C=C/c4ccccc4)CC3)c2)c1` gave VDR inh 0%.
For CCOC(=O)COc1ccc2c(c1)C(=O)CC1(CCCCC1)O2 the results were VDR inh -4%.
For COC(=O)CSc1nc(-c2cccs2)ccc1C#N the results were VDR inh -13%.
For COc1cccc(-c2nc(CS(=O)(=O)CC(=O)NCCCN3CCN(C)CC3)c(C)o2)c1 the results were VDR inh -21%&-22%.
For COc1ccc2nc(SCC(=O)Nc3nonc3C)[nH]c2c1 the results were VDR inh -1%.
`COc1ccc(-n2c(C)n[nH]c2=O)cc1` gave VDR inh -12%.
`COc1ccc(C2NC(=O)NC(C)=C2C(=O)OC2CCCCC2)cc1OC` (configuration not stated) gave VDR inh 6%.
`COC(=O)c1cc2ccccc2n1S(=O)(=O)c1ccccc1` gave VDR inh -29%.
Screening COc1cccc(C(C(=O)NC2CCCC2)N(CCC(C)C)C(=O)CCC(=O)Nc2cc(C)on2)c1 (configuration not stated) returned VDR inh -21%.
`Cc1ccccc1NC(=O)CCS(=O)(=O)c1ccc(Br)s1` gave VDR inh -7%.
`CCC(=O)N1CCc2cc(S(=O)(=O)NC(CC(C)C)C(=O)Nc3ccc(CC)cc3)ccc21` (configuration not stated) gave VDR inh -10%.
Oc1ccccc1N1CCN(CC(O)COC2CCCc3ccccc32)CC1 (configuration not stated) was read as VDR inh 8%.
`Cc1ccc(CNC(=O)CCc2c(C)nc3c(c(C)nn3-c3ccccc3)c2C)cc1` gave VDR inh 7%.
Screening C=CCN1C=CC=C/C1=C1\SC(=S)N(C)C1=O returned VDR inh -26%.
For Cc1oc(-c2ccccc2F)nc1Cn1c(SCc2ccccc2F)nc2ccncc21 the results were VDR inh 2%.
Screening Cn1cc(CCC(=O)N2CCCC(N3CCN(c4ccccc4F)CC3)C2)cn1 (configuration not stated) returned VDR inh 13%.
CC(C)(C)c1cc(P(=O)(c2ccccc2)c2ccccc2)ccc1O was read as VDR inh -9%.
Cc1cccc(C)c1NC(=O)CNC(=O)C(NC(=O)c1ccc(C(C)(C)C)cc1)C(C)C (configuration not stated) was read as VDR inh -18%.
Screening CCOc1ccc(-n2c(=O)c3c(C)c(C)sc3n(CC(=O)c3ccccc3)c2=O)cc1 returned VDR inh 9%.
For CN(C)S(=O)(=O)c1ccc(C(=O)Nc2nnc(-c3ccco3)o2)cc1 the results were VDR inh 1%.
CCc1cc(=O)oc2cc(OCC(=O)NCC3CCC(C(=O)O)CC3)ccc12 (configuration not stated) was read as VDR inh -10%.
CC(=O)c1cccc(NC(=O)C23CC4CC(C2)CC(n2cncn2)(C4)C3)c1 was read as VDR inh inconclusive.
COCCNC(=O)C(OC(=O)CC1Sc2ccccc2NC1=O)c1ccccc1 (configuration not stated) was read as VDR inh 2%.
CCC1Oc2ccccc2N(CC(=O)NCCCN2CCN(Cc3ccccc3)CC2)C1=O (configuration not stated) was read as VDR inh -11%.
For CN(C)c1ccc(-c2ccc(C3C4C=CCCC4(C)C(=O)N3Cc3ccccc3)c(F)c2)cc1 (configuration not stated) the results were VDR inh -12%.
CN1/C(=C/C2CC(=O)NC2=O)C(C)(C)c2ccccc21 (configuration not stated) was read as VDR inh 7%.
CCS(=O)(=O)N1CCN(c2ccc(C(=O)N3CCOCC3)cc2[N+](=O)[O-])CC1 was read as VDR inh -11%.
Screening CCCc1ccc(NS(=O)(=O)c2c(C)oc(C)c2C(=O)OC)cc1 returned VDR inh 9%.
`Cc1cccc(C)c1OCCN1CCOCC1` gave VDR inh -18%.
COc1ccc(OC)c(S(=O)(=O)Nc2ccccc2F)c1 was read as VDR inh -2%.
For COc1ccccc1N1CCN(c2ncnc3onc(-c4cccc(Cl)c4)c23)CC1 the results were VDR inh -10%.
Screening COc1ccccc1CNCC(O)Cn1c2ccccc2c2ccccc21 (configuration not stated) returned VDR inh -21%.
O=C(Nc1ccc(S(=O)(=O)Nc2cnc3ccccc3n2)cc1)c1ccc([N+](=O)[O-])cc1Cl was read as VDR inh -23%.
`CC1(C)Cc2c(cnn2-c2ccc(F)cc2)C(NC(=O)CCn2cncn2)C1` (configuration not stated) gave VDR inh 3%.
For O=C(CNC(=O)c1ccc(Br)cc1)NCc1cccnc1 the results were VDR inh -13%.
`COc1ccccc1NC(=O)CCNS(=O)(=O)c1ccc2c(c1)CCN2C(=O)C1CC1` gave VDR inh 2%.
CC1CC(NS(=O)(=O)c2cccs2)CC(C)(C)C1 (configuration not stated) was read as VDR inh -14%.
Screening CCC(c1c(C)[nH]oc1=O)c1c(C)[nH]oc1=O returned VDR inh 4%.
COc1ccc2oc(=O)c(-c3nc4ccccc4o3)cc2c1 was read as VDR inh 9%.
For O=C(NCc1ccco1)/C(=C\c1ccccc1)NC(=O)c1ccccc1 the results were VDR inh -10%.
For COC(=O)c1nnc(N[C@@H](Cc2c[nH]c3ccccc23)C(=O)OC)nc1C(=O)OC the results were VDR inh 0%.
`CCOc1ccc2nc(SCC(=O)N(C)C3CCS(=O)(=O)C3)[nH]c2c1` (configuration not stated) gave VDR inh -3%.
Cc1ccc(OCc2cc(C(=O)N3CCC(C(O)C(C)C)CC3)no2)cc1C (configuration not stated) was read as VDR inh 2%.
For Cc1ccc(NS(=O)(=O)c2cc([N+](=O)[O-])ccc2NNC(=S)Nc2cccc(Cl)c2)c(C)c1 the results were VDR inh -29%.
`CCOc1ccc(-c2c(C(=O)N/N=C(\C)c3ccncc3)nnn2-c2nonc2N)cc1` gave VDR inh 6%.
`NC1=NC(c2ccc(Cl)cc2)n2c(nc3ccccc32)N1` (configuration not stated) gave VDR inh -14%.
`CCC(NS(=O)(=O)c1ccc(OC)cc1)C(=O)O` (configuration not stated) gave VDR inh 3%.
For COc1ccc(CN2CCN(C3CCC3)CC2CCO)cc1C (configuration not stated) the results were VDR inh -13%.
Screening COc1ccc(NS(=O)(=O)c2cc(NC(=O)c3ccccc3)ccc2N2CCOCC2)cc1 returned VDR inh 13%.
`Cc1no[n+]([O-])c1COc1ccc(/C=N/n2nnnc2N)cc1` gave VDR inh -9%.
`O=C1/C(=C/c2ccccc2O)SC(=S)N1Cc1cccnc1` gave VDR inh inconclusive.
Screening CCOC(=O)c1[nH]c(C)c(C(=O)OCCOc2cccc(C)c2)c1C returned VDR inh -13%.
Cc1ccc(S(=O)(=O)NC(=O)Nc2ncc3c(n2)CC(c2ccco2)CC3=O)cc1 (configuration not stated) was read as VDR inh 1%.
O=c1cc(O)c2sc(Nc3cccc(C(F)(F)F)c3)nc2[nH]1 was read as VDR inh -23%.

Grouped by structure, those above containing fluorine.
Cc1c(CNC2CCCCCC2)c(C(=O)O)c(C)n1Cc1ccc(F)cc1 was read as VDR inh -13%.
`COc1ccc(CCNC(=O)C(=O)NCC2OCCN2S(=O)(=O)c2ccc(F)cc2)cc1OC` (configuration not stated) gave VDR inh 17%.
Screening Cc1[nH]c2ccccc2c1/C=N/Nc1nc(Nc2ccc(F)cc2)nc(N2CCOCC2)n1 returned VDR inh 1%.
For Cc1nc2c(-c3ccc(F)cc3)c(C)nn2c(C)c1CCC(=O)NCc1ccc(Cl)cc1 the results were VDR inh -22%.
For COc1ccc(C2/C=C\C(c3ccc(OC)cc3)N(Cc3ccc(F)cc3)C(=O)C(=O)N2Cc2ccc(F)cc2)cc1 (configuration not stated) the results were VDR inh -11%.
`Cc1ccc(-c2nnn(CC(=O)N(CC(=O)NC3CCCCC3)c3ccc(F)c(Cl)c3)n2)o1` gave VDR inh 7%.
For Cc1nnc(SCc2ccc(F)cc2)n1NC/C=C/c1ccccc1 the results were VDR inh 17%.
For Cc1oc(-c2ccccc2F)nc1Cn1c(SCc2ccccc2F)nc2ccncc21 the results were VDR inh 2%.
Screening Cn1cc(CCC(=O)N2CCCC(N3CCN(c4ccccc4F)CC3)C2)cn1 (configuration not stated) returned VDR inh 13%.
For CN(C)c1ccc(-c2ccc(C3C4C=CCCC4(C)C(=O)N3Cc3ccccc3)c(F)c2)cc1 (configuration not stated) the results were VDR inh -12%.
COc1ccc(OC)c(S(=O)(=O)Nc2ccccc2F)c1 was read as VDR inh -2%.
`CC1(C)Cc2c(cnn2-c2ccc(F)cc2)C(NC(=O)CCn2cncn2)C1` (configuration not stated) gave VDR inh 3%.
O=c1cc(O)c2sc(Nc3cccc(C(F)(F)F)c3)nc2[nH]1 was read as VDR inh -23%.

This is a subset; rates above refer to the full screens.
